# VACV Venus inh = qHTS for Stage-Specific Inhibitors of Vaccinia Orthopoxvirus: Venus Reporter Primary qHTS; Vaccinia virus Venus reporter expression, fluorescence; Potency, µM (highest dose often 36.5 µM), inactives show at the highest dose activity change, negative = inhibition, hits mostly inhibitors; 0.46% of 330,000 active; active means well fitted inhibition curve with a large enough effect; inconclusive means small, poorly fitted or top-dose-only effect; inactive means no such curve, though single readings can be large or run the other way; tested in A549 cells; further: nearly all actives have a fitted effect of over 30% in size; inactives centre near -10
# Vaccinia mCherry = qHTS for Stage-Specific Inhibitors of Vaccinia Orthopoxvirus: mCherry Reporter Primary qHTS; Vaccinia virus mCherry reporter infection, fluorescence; about a quarter of the inactives have no number; Potency, µM (top dose mostly 36.5 µM), inactives show at the top dose activity change, negative = inhibition, hits mostly inhibitors; 0.63% of 310,000 active; active = well fitted inhibition curve with a large enough effect; inconclusive = small, poorly fitted or top-dose-only effect; inactive = no such curve, though single readings can be large or run the other way; tested in A549 cells; further: nearly all actives have a fitted effect of over 35% in size; inactives centre near -10
# * marks the source's active call; other numbers are inactive results; i = inactive; u = inconclusive; x = no result given; & = joins results of further samples; [ ] = dose if it differs, or a comment. On the % scale 0 is the no-effect control and ±100 the full control effect; potency means the concentration at half of the fitted maximal effect.
# The line under a structure holds: VACV Venus inh, Vaccinia mCherry
CCc1cccc(C)c1NC(=O)c1cc(S(=O)(=O)N2CCCCCC2)cn1C
 : 3.1%, -8.7%
COc1ccc(C(=O)COC(=O)/C=C/c2ccccc2[N+](=O)[O-])cc1
 : -5.0%, -13.3%
COc1cccc(NC(=S)N(Cc2ccc(C(=O)O)cc2)Cc2ccc(OC)c(OC)c2)c1
 : -16.4%, -8.7%
COc1cc2[nH]c(=S)nc(NCc3ccccn3)c2cc1OC
 : -0.3%, -10.0%
Cc1ccc(N2C(=O)c3ccccc3C2(O)c2ncc[nH]2)cc1 (stereo not drawn)
 : -6.9%, -8.7%
CCOc1ccc(CCNC(=O)c2cccc(S(=O)(=O)N3CCOCC3)c2)cc1OCC
 : -16.9%, i
O=C(CSC1=NCCS1)NC1CCCC1
 : -2.0%, -10.5%
C=CCn1cnnc1SCC(=O)N(C1CCCCC1)C1CCS(=O)(=O)C1 (stereo not drawn)
 : -6.0%, -17.8%
COCCOC(=O)C1=C(C)NC(=O)NC1c1cccs1 (stereo not drawn)
 : 2.7%, i
CCOC(=O)CCSc1n[nH]c(=S)s1
 : -4.3%, i
Cc1ccc2nc(NC(=O)CN3C(=O)C4CC=CCC4C3=O)sc2c1 (stereo not drawn)
 : -18.3%, i
CCn1c(SCC(=O)NC2CCCC2)nnc1-c1ccco1
 : 19.0%, -14.3%
CC1CCCCC1NC(=O)Cn1[nH]c(=O)c2ccccc2c1=O (stereo not drawn)
 : 8.6%, -5.7%
CCc1ccc(NC(=O)CSc2cn(CC(=O)N3CCOCC3)c3ccccc23)cc1
 : -12.5%, -18.2%
COC(=O)C1=C(C(=O)OC)C2OC1c1cc3ccccc3cc12
 : u, i
COC(=O)CC1C2(C)CC34OC5(C)O[C@@]6(C7/C(=C(/O)C(C)C)C(=O)OC(c8ccoc8)[C@]7(C)C(OC(C)=O)C(OC(C)=O)[C@]6(O5)[C@@]13C)C(OC(C)=O)[C@]4(O)C2OC(=O)C(C)C (stereo partly drawn)
 : -7.0%, -14.9%
O=C(N/N=C/c1ccc(N2CCOCC2)cc1)c1ccccc1OCCOc1ccccc1
 : -19.5%, -29.6%
CCCSc1nnc(CSc2nc3nc(C)cc(C)n3n2)o1
 : -15.8%, -8.7%
C/C(CC(=O)Nc1ccccc1-c1ccccc1)=N\NC(=O)COc1ccc(C)cc1Br
 : -24.7%, x
Cc1cc(C(F)F)n2nc(C(=O)Nc3cccc(Cl)c3C)nc2n1
 : -4.9%, 2.3%

# More results:
# The line under a structure holds: VACV Venus inh, Vaccinia mCherry
O=C(CCn1ccc([N+](=O)[O-])n1)NC1CCCCCC1
 : -5.7%, -13.1%
COc1cc(NC(=O)c2ccc(NC3=NC4CS(=O)(=O)CC4S3)cc2)cc(OC)c1 (stereo not drawn)
 : 9.0%, -10.3%
O=C(COC(=O)CCC(=O)c1ccc(F)cc1)Nc1ccccc1
 : -1.9%, i
Cc1ccc2nc(/N=C(\N)NC(=O)NC3CCCCC3)nc(C)c2c1
 : u, u
C=C1CCC2C(C)(CO)C(O)CCC2(C)C1C/C=C1\C(=O)OCC1O (stereo not drawn)
 : u, u
O=C(CCCC(=O)N(CC(=O)NC1CCCCC1)Cc1ccco1)Nc1ccccn1
 : -1.5%, x
O=C(CSc1nnnn1Cc1ccccc1)Nc1ccc2c(c1)OCCO2
 : -11.9%, i
CC(=O)/C(=N\Nc1ccc(Cl)cc1)Sc1nnc(-c2ccccc2)n1-c1ccccc1
 : -11.5%, -18.6%
CCC(=O)Nc1ccc(N2CCC(C)CC2)cc1
 : -6.1%, -25.4%
CCOc1ccc(NC(=O)CN(C)C(=O)c2ccccc2OCc2cccc(C)c2)cc1OCC
 : u, -17.2%
COc1ccc(S(=O)(=O)NC2CC(=O)N(c3ccc(C)c(C)c3)C2)cc1 (stereo not drawn)
 : -15.9%, -12.9%
COC(=O)c1ccc(Cn2nnc3c(=O)[nH]c(C4CCCN(S(=O)(=O)c5ccccc5)C4)nc32)cc1 (stereo not drawn)
 : -6.5%, -0.9%
O=S(=O)(Nc1ccc(OC(F)F)cc1)c1ccc(-c2ccon2)s1
 : -5.6%, -6.5%
CN(CC1COCCO1)C(=O)c1cnn(-c2nccc(-c3ccccc3C(F)(F)F)n2)c1C1CC1 (stereo not drawn)
 : 1.0%, -12.6%
O=C(O)c1ccccc1C1c2ccccc2Oc2ccccc21
 : -4.2%, -10.8%
COC(=O)C1=C(c2ccc(OCc3ccccc3)cc2)C[C@@H]2CC[C@H]1N2C(=O)NCc1ccccc1C(F)(F)F
 : u, -13.8%
CN(Cc1ccccc1NS(=O)(=O)c1ccc(Cl)cc1)C1CCCCC1
 : -17.8%, -12.4%
Cc1cccc(NC(=O)c2ccc(OCC3CCCO3)cc2)c1C (stereo not drawn)
 : -6.1%, i
C/C(N)=C(/C#N)C(=O)COC(=O)c1ccc(NC(N)=O)cc1
 : 0.0%, -8.7%
N#Cc1ccc(S(=O)(=O)N2CCCCC2c2cc(C(=O)N3CCOCC3)no2)cc1 (stereo not drawn)
 : -6.5%, 0.3%

# The final two compounds of the section above are carried over, then new ones follow:
# The line under a structure holds: VACV Venus inh, Vaccinia mCherry
C/C(N)=C(/C#N)C(=O)COC(=O)c1ccc(NC(N)=O)cc1
 : 0.0%, -8.7%
N#Cc1ccc(S(=O)(=O)N2CCCCC2c2cc(C(=O)N3CCOCC3)no2)cc1 (stereo not drawn)
 : -6.5%, 0.3%
CCC(Oc1cc(Cl)ccc1Cl)C(=O)N1CCCN(C)CC1 (stereo not drawn)
 : -6.4%, -17.4%
Cc1ccc2c(c1)[C@H]1[C@H](CO2)[C@H](c2ccccc2)[C@]2(C)C(=O)N(Cc3ccc(Cl)cc3)CC(=O)N12
 : -28.3%, -8.3%
Cc1ccccc1N1CCN(C(=O)NCc2cccc(Cl)c2)CC1
 : -10.5%, -4.5%
O=C(O)c1cc(S(=O)(=O)Nc2ccccc2Cc2ccccc2)ccc1Cl
 : -1.0%, -0.2%
Cc1cccc(N2CCC(NCc3c(C(=O)N4CCCCC4)nc4c(C)cccn34)CC2)c1
 : -19.4%, -0.8%
COc1ccc(NC(=O)CN(c2cccc(F)c2)S(C)(=O)=O)cc1OC
 : 0.0%, i
CN(CC(=O)Nc1ccc(S(=O)(=O)N2CCCC2)cc1)Cc1c(F)cccc1Cl
 : -17.9%, -19.4%
O=C(O)c1ccc(SCc2ccccc2)nc1
 : -15.8%, i
Cn1nnnc1N=N/C(=N/Nc1ccccc1)c1ccccc1
 : -29.4%, u
Cc1ccc(N2CC(C(=O)Nc3nnc(SCCC4OCCO4)s3)CC2=O)cc1 (stereo not drawn)
 : -8.9%, -13.6%
NC(=O)C1(N2CCCCC2)CCN(c2nc(-c3ccccc3)cs2)CC1
 : u, x
O=C1c2cc(Cl)ccc2OC2(CCNCC2)C12CC(c1ccccc1)=NO2 (stereo not drawn)
 : -22.7%, -13.9%
CCOC(=O)C1(Cc2ccccc2)CCN(CC2CC=CCC2)CC1 (stereo not drawn)
 : -1.8%, -12.9%
CCC1CCCCN1CC(=O)c1c(C)[nH]c2ccccc12 (stereo not drawn)
 : 15.8%, x
Nc1nc2c(ncn2[C@@H]2O[C@H](CNC(=O)[C@H](N)Cc3cncn3COCc3ccccc3)[C@@H](O)[C@H]2O)c(=O)[nH]1
 : 10.2%, 42.1%[activator]
O=C(Nc1ccncc1)C1CCN(S(=O)(=O)c2ccccc2)CC1
 : 2.4%, -5.9%
CC(C)c1ccc(N2CC(C)(C)C2=O)cc1
 : -0.2%, 0.5%
Cc1cc(C)n2c(SCC(=O)N(CCC#N)c3ccc4c(c3)OCCO4)nnc2n1
 : -22.2%, i
Cn1c(=O)c2sccc2n2c(CCCC(=O)Nc3ccc(F)c(F)c3)nnc12
 : -5.0%, -2.7%
Cc1ccc(NC(=O)Nc2cnccn2)cc1C
 : -9.3%, i

# (list continues)
# The line under a structure holds: VACV Venus inh, Vaccinia mCherry
CCn1nnc2cc(C(=O)Nc3cccc(Cl)c3C)ccc21
 : -13.7%, -12.6%
Cc1ccc(-c2nnn(CC(=O)O)n2)cc1
 : -4.1%, -13.1%
COc1ccc(C2=Nc3ccccc3N(C(=O)Cc3cc(OC)cc(OC)c3)C2C(=O)NC(C)C)cc1 (stereo not drawn)
 : -11.8%, 9.1%
COc1ccc(OCC(=O)NCc2ccc(Cl)cc2)cc1
 : -4.5%, i
COc1ccc(N2CCN(CCCNC(=S)Nc3c(C)cccc3C)CC2)cc1
 : -1.7%, u
CCOC(=O)c1ccc(NC(=S)Nc2cccc(N)n2)cc1
 : -11.7%[7.34 µM], -3.3%[7.34 µM]
O=C(Nc1ccc(S(=O)(=O)Nc2nccs2)cc1)c1ccc(=O)[nH]c1
 : -2.1%, -9.9%
O=C(O)c1cc2ccccc2[nH]1
 : 17.5%&-8.2%, 3.4%&-4.7%
CCc1ccccc1NC(=O)C1CCN(c2cnccn2)CC1
 : 4.0%&-6.8%, 31.8%&2.0%[activator]
CC(Nc1cccc([N+](=O)[O-])c1)C(=O)Nc1ccc(S(=O)(=O)N2CCCC2)cc1 (stereo not drawn)
 : -19.4%, i
CN1CCN(c2ccc(S(=O)(=O)C(F)(F)F)cc2[N+](=O)[O-])CC1
 : -5.8%, -6.4%
CCOC(=O)c1cc(-c2ccccc2C)n(CC2CC(c3cccc([N+](=O)[O-])c3)=NO2)n1 (stereo not drawn)
 : -20.3%, -25.6%
CCCN(CC1CC1)C(=S)NC(=O)c1cc(Br)ccc1Cl
 : -17.3%, -13.5%
COc1ccc2oc(C(=O)OCC(=O)Nc3ccccc3)c(C)c2c1
 : -3.9%, -16.2%
CCC(=O)NCCNC(=O)c1c(SC)nsc1SC
 : -6.7%, x
CCOC(=O)CCSc1nc(-c2ccccc2)cc(C(F)(F)F)n1
 : -4.1%, x
O=C(OCC(=O)N1CCCc2ccccc21)c1ccc(Cl)nc1
 : -14.3%, i
Cc1ccc(NC(=O)CCC(=O)NNC(=O)c2ccccc2)c(C)c1
 : -21.8%, -10.5%
COc1ccc(NC(=O)CCCN2C(=O)C3CC=CCC3C2=O)cc1 (stereo not drawn)
 : -8.6%, i
CCOC(=O)c1sc(C)c2c1NC1(CCCCCC1)NC2=O
 : -18.5%, -9.2%

# Other entries follow:
# The line under a structure holds: VACV Venus inh, Vaccinia mCherry
COc1ccc(CNC(=O)c2cc(S(=O)(=O)N3CCCCC3)ccc2N2CCOCC2)cc1OC
 : -20.2%, i
O=C(NNC(=O)c1sccc1-n1cccc1)c1ccc(Cl)cc1
 : -27.4%, x
CC(C)CCn1c(CN2CCOCC2)nc2c1c(=O)n(C)c(=O)n2C
 : 4.4%, -5.1%
O=C(NC1(C(F)(F)F)N=C(c2ccccc2)N(Cc2ccccc2)C1=O)c1ccc(F)cc1 (stereo not drawn)
 : 2.2%, 6.4%
c1ccc(-c2noc(CSc3nnnn3-c3ccccc3)n2)cc1
 : -4.7%, -14.2%
CC(=NCCO)c1c(O)n(C2CCCCC2)c(=O)[nH]c1=O
 : -4.0%, x
O=C(Nc1ccc(C(=O)O)cc1)/C(=C/c1ccc([N+](=O)[O-])cc1)NC(=O)c1ccccc1
 : -15.4%, -10.6%
O=C(/C=C/c1ccccc1)NC(NC(=S)Nc1ccc(Cl)cc1Cl)C(Cl)(Cl)Cl (stereo not drawn)
 : u, -7.4%
COC[C@H]1OC(=O)c2coc3c2[C@@]1(C)C1=C(C3=O)[C@@H]2CCC(=O)[C@@]2(C)C[C@H]1OC(C)=O
 : 38.4%[activator], 4.1%
O=C(/C=C/c1ccccc1)NCCSCc1ccc(Cl)cc1
 : -9.1%, -13.6%
COc1cccc(CNC[C@H]2O[C@@H](n3ccc(N)nc3=O)[C@H](O)[C@@H]2O)c1OCc1ccc(F)cc1Cl
 : -14.4%, -0.8%
C=CCOc1ccc(C(=O)O)cc1Cl
 : -20.5%, i
O=[N+]([O-])c1ccc(O)c(/C=N/n2cnc3ccccc32)c1
 : -10.3%, -8.2%
COCCN1C[C@@H](CO)O[C@@H](n2cnc3c(N4CCN(C)CC4)ncnc32)C1
 : -4.3%, 29.1%
O=C(OC12CC3CC(CC(C3)C1)C2)c1ccc(NCc2cc(O)ccc2O)cc1
 : u, u
O=c1[nH]nc(SCc2nc3ccccc3s2)n1C1CC1
 : -6.3%, -2.7%
Cc1cccc(C#N)c1NC1=CC(=O)CC(C)(C)C1
 : -19.4%, -23.8%
O=C(OCc1cc(Cl)cc2c1OCOC2)c1cccnc1Cl
 : -13.6%, i
Cc1cc(NC(=O)CSc2ncnc3c2cnn3-c2ccccc2)no1
 : -5.9%, i
COC(=O)CN1C(=S)N(c2ccc(F)cc2)C(=O)C1CC(=O)Nc1ccccc1 (stereo not drawn)
 : -6.7%, -0.7%

# The list goes on:
# The line under a structure holds: VACV Venus inh, Vaccinia mCherry
c1csc(Cc2nc(-c3ccc(-n4cccc4)cc3)no2)c1
 : -14.6%, i
CC(C)C(C(=O)Nc1sc2c(c1C#N)CCCCC2)N1C(=O)c2ccccc2C1=O (stereo not drawn)
 : -7.5%, x
c1ccc(Cc2nn3c(COc4ccccc4)nnc3s2)cc1
 : -1.8%, i
Cc1ccc(C2/C(=C(\O)c3c(C)nc4ccccn34)C(=O)C(=O)N2CCN(C)C)o1 (stereo not drawn)
 : -22.1%, -9.9%
CCOc1ccc2c(c1)s/c(=N\S(=O)(=O)c1ccc(OC)cc1)n2C(F)F
 : -16.4%, -10.9%[1.46 µM]
COc1ccc(C(=O)N(Cc2ccc(N(C)C)cc2)CC2CCCO2)cc1 (stereo not drawn)
 : -6.0%, -9.3%
CC(=O)NC(Cc1ccc(O)cc1)C(=O)NCC(N)C(=O)c1ccccc1 (stereo not drawn)
 : -14.4%, -22.4%
CCN(CC)CC(=O)n1c2c(c3ccccc31)CCCC2
 : -29.7%, x

# Screening data from PubChem BioAssay.
